FGF22 binding = binders of recombinant human FGF22 by thermal shift. SYPRO orange fluorescence; percent of sucrose octasulfate shift, DMSO zero. Q9HCT0. calls only at 9.99 µM. actives 1.5% (n = 340,000);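 active = melting point raised past a set limit in the mean and every replicate; three in four hits are not shown here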
Target sequence (Q9HCT0 whole entry, looked up): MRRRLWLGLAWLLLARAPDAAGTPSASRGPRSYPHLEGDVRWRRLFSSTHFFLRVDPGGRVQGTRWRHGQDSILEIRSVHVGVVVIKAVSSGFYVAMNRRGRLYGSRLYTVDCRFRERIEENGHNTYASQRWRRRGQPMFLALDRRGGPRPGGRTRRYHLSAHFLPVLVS
UCH37 inh = inhibitors of human deubiquitinating enzyme UCH37 | inhibition, % (no concentration beside the values) | Q9Y5K5 | actives 0.33% (n = 330,000) | AID 588478 | purified proteasome/UCH37, Ub-AMC cleavage fluorescence;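 active = mean of two replicates above 20%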;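 note: 0% = compound-free wells with enzyme and 100% = wells lacking proteasome; stock transfer was 100 nL into about 20 µL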
Target sequence (Q9Y5K5 whole entry, looked up): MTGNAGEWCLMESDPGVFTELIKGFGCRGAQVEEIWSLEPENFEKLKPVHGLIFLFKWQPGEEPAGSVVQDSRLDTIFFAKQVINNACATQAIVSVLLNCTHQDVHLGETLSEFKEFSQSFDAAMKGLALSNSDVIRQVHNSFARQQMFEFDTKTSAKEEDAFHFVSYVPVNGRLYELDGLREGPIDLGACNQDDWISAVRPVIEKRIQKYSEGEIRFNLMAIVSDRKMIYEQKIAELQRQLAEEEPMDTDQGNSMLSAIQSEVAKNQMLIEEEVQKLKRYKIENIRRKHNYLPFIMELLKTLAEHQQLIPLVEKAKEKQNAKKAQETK
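assay system = human UCH37 enzyme supplied as purified proteasome complex | amount = proteasome at 0.15 nM in the dispensed enzyme solution | schedule = 30 min compound-proteasome preincubation then 25 min substrate reaction, room temperature | measured by = fluorescence, ex 355 nm, em 460 nm | benchmarks = no-proteasome wells (full inhibition) and compound-free wells (no inhibition)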
Beta apoptosis = blocks beta cell apoptosis; protection from apoptosis, % (concentration not given with the values); INS-1E cytokine-induced death, ATP luminescence, 48 h; percent of positive-control rescue, neutral wells zero; actives 0.8% (n = 300,000); AID 435005;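 active = all replicates at 75% or more, or half of them and the mean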;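 note: 0% = cytokine-treated negative control wells and 100% = positive control rescue; higher means more ATP so stronger rescue from cytokine killing; wells of about 40 µL received 100 nL stock; the first replicate is given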
A1 inh = inhibitors of the anti-apoptotic protein A1, read as caspase activation; caspase activation, % (test concentration not listed); MEF A1-2A-BIM cells, Caspase-Glo 3/7 luminescence, 3 h; percent of clofoctol response, vehicle zero; actives 0.066% (n = 330,000); AID 2462;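 active = over half of replicate activation scores above 10%, or exactly half above 10 with the replicate mean above 10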;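 note: wells of about 30 µL received 50 nL stock; many hits fall short of the cut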
E coli growth = blocks Escherichia coli growth | OD600, 23 h; hits give low values | OD600 absorbance (test concentration not listed) | actives 0.21% (n = 330,000) | AID 1053175;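 active = OD600 absorbance below the run mean of sample wells minus 3.6 SD, in any replicate, cut at about 0.56 in these data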;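 note: stock transfer was 300 nL into about 60 µL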
MLL AF4-AF9 inh = blocks AF4 peptide binding to human AF9 | AlphaScreen, biotin-AF4 peptide binding to FLAG-AF9 | inhibition, % at 10 µM | actives 0.47% (n = 350,000) | AID 651704;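 active = every replicate reaching a set inhibition limit, whatever the replicate mean, cut at about 25% in these data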;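 note: 0% = plate neutral control median and 100% = total signal loss; the record names both 10 and 1 µM as test concentration; the first replicate is given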
Target sequence (P42568 whole entry, looked up): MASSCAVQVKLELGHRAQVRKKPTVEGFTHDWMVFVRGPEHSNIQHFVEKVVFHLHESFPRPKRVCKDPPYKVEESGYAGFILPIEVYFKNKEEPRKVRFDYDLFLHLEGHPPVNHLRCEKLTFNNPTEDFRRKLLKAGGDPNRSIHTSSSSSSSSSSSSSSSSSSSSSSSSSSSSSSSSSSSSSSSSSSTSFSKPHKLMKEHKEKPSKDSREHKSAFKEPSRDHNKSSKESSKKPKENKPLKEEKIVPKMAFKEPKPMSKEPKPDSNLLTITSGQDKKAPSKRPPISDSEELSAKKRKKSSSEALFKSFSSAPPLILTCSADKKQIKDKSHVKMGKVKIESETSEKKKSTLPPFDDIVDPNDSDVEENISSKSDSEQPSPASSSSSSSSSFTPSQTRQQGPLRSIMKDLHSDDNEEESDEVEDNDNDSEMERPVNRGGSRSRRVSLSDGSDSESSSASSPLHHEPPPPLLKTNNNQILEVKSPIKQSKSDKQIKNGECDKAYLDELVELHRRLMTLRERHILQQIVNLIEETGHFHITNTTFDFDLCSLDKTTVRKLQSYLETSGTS
rRNA inh HTS = selective bacterial rRNA inhibition in E. coli; AID 720706; GFP signal change (wild-type ribosome), % (concentration not given with the values); E. coli WT GFP vs humanized-ribosome RFP mutants, fluorescence, 24 h; hits give low values; DMSO median 0, no signal -100; actives 1.6% (n = 350,000);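 active = significant combined selectivity score with lowered wild-type GFP, culture density cut under 30%, mutant RFP and density less affected; inactive = any of these conditions unmet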; note: one replicate is shown; some compounds called inactive have numbers as strong as hits
T cruzi repl = blocks replication of Trypanosoma cruzi; T. cruzi beta-gal in NIH3T3, luminescence, 90 h; inhibition, % (test concentration not listed); actives 1.4% (n = 300,000); AID 1885;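 active = mean inhibition across valid replicates above about 55%, limit read from the data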;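 note: signal also drops with host cell toxicity which is not excluded here; 0% = plate median of DMSO wells and 100% = zero luminescence signal; higher percent means less beta-gal luminescence so fewer parasites; stock transfer was 50 nL into about 50 µL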
rRNA inh HTS OD600 = second read-out of rRNA inh HTS, no call of its own (marks repeat the call); OD600 change, %; measured here: OD600 growth;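 optical density of the mix in the first replicate; 0 = DMSO median and -100 = no signal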
rRNA inh HTS RFP = further read-out of rRNA inh HTS, marked with its call; RFP signal change, %; measured here: RFP humanized mutant strains;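 first replicate; 0 = DMSO median and -100 = no signal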
An asterisk follows results filed as active; i = inactive; . = not tested or not shown. The list is partial, so the mix of outcomes need not match the whole.

SMILES	FGF22 binding	UCH37 inh	Beta apoptosis	A1 inh	E coli growth	MLL AF4-AF9 inh	rRNA inh HTS	rRNA inh HTS OD600	rRNA inh HTS RFP	T cruzi repl
CC1CCCCC1NC(=O)C1CC(=O)N(Cc2ccccc2)C1 (stereo not given)	i	0.7	7	0.0	0.71	-0.9	4	3	3.7	4
COc1ccc(S(=O)(=O)N2CCOCC2)cc1NC(=O)CCNC(=O)c1ccc(Cl)cc1	i	0.7	.	.	0.67	-44	0	7	5.1	.
O=C(O)CCSCCC(=O)O	.	0.0	-2	-0.8	0.74	-1.3	.	.	.	-15
O=C(NCCc1cccc(Cl)c1)c1ccc(Cl)c([N+](=O)[O-])c1	i	2.7	-4	-0.2	0.66	6.0	-19	-21	-9.9	10
O=C(CSc1nc(-c2ccccc2)cc(C(F)(F)F)n1)NCCN1CCOCC1	.	1.4	-4	0.3	0.69	.	.	.	.	19
O=C(NCc1ccc(F)cc1)C1CCN(S(=O)(=O)N2CCOCC2)CC1	i	3.6	3	0.2	0.72	-1.0	8	12	2.6	-2
O=C1Nc2ccccc2C(=O)N2[C@H](c3ccccc3)[C@@H]3C(=O)N(Cc4ccccc4)C(=O)[C@@H]3[C@H]12	i	1.2	-4	0.5	.	5.5	3	6	3.0	-14
Cc1ccccc1Nc1nc(N)nc(CN(C)c2ccccc2)n1	.	-1.0	-1	-1.3	0.72	.	.	.	.	0
COC(=O)c1c(C)oc(C)c1S(=O)(=O)NC(c1ccccc1)c1ccccc1	i	3.1	-9	-0.3	0.64	.	-35*	25*	-5.8*	28
COc1ccc(N2CCN(C(=O)Cc3ccc(Br)cc3)CC2)cc1	i	0.5	0	0.7	0.66	-11	-10	-2	-5.0	-6
CCOC(=O)c1ccc(OCc2c(C)noc2C)cc1	.	0.7	3	0.2	0.71	.	.	.	.	-12
COc1ccccc1-c1nnc2sc(-c3cc4ccccc4o3)nn12	.	4.8	10	0.7	0.7	.	.	.	.	34
COc1ccc(-c2ccc(C(=S)N3CCN(C(C)=O)CC3)o2)cc1	.	7.6	-5	-0.1	0.73	.	.	.	.	-12
CCCN(CCC)S(=O)(=O)c1ccc(C(=O)Nc2ccc(OCC(=O)N3CCOCC3)cc2)cc1	.	4.4	-7	0.6	0.71	.	.	.	.	-9
CC(=O)c1sc(Nc2ccc(C)cc2)nc1C	i	3.3	-9	0.1	0.63	-1.2	15	12	-0.6	10
COc1ccccc1NC(=O)CSc1nnc(-c2ccoc2C)n1CCc1ccccc1	.	2.3	2	1.0	0.72	.	.	.	.	6
CCOc1cc(NC(=S)NCCCN2CCOCC2)c(OCC)cc1NC(=O)c1cccc(C)c1	i	-85	3	-1.3	0.68	-0.1	12	14	4.5	-5
Cc1cccc(CN2CCCC(C(=O)Nc3ccc(-c4cscn4)cc3)C2)c1 (stereo not given)	i	2.2	-10	0.6	0.72	2.4	-1	-17	19	28
Cc1ccc(NC(=O)[C@H](C)NC(=O)C2CCN(C(=O)[C@@H](N)CC(C)C)CC2)cc1	i	3.5	2	0.0	0.67	5.3	1	-2	4.3	-6
CCOCCn1c(SCc2ccc(F)cc2)nc2c1c(=O)[nH]c(=O)n2C	i	2.1	-4	-0.4	0.71	-5.1	3	2	-1.6	-4
CCOC(=O)c1c(C)c(C(=O)NCCOC)c(C)n1CC	i	1.9	1	-0.5	0.66	4.6	7	6	-8.9	-13
CCOc1ccc(CCNC(=O)c2ccc(C)c(S(=O)(=O)N3CCOCC3)c2)cc1OCC	i	0.7	.	.	0.67	-7.3	11	9	-1.6	.
CS(=O)(=O)N1CCN(c2ccc(C(=O)NC34CC5CC(CC(C5)C3)C4)cc2[N+](=O)[O-])CC1	.	1.5	10	-0.1	0.66	.	.	.	.	-7
CCOCC(=O)N1CCCC(C(=O)OCC)C1 (stereo not given)	.	1.8	0	0.3	0.75	.	.	.	.	0
Cc1ccc(OCC(=O)Nc2ccc(-c3nc4ncccc4o3)cc2)c(C)c1	.	-116	3	1.4	0.7	.	.	.	.	-5
O=C(CSc1nncn1-c1ccccn1)Nc1ccccc1Cl	i	2.3	-5	0.2	0.7	0.4	1	4	-3.5	10
CC1(NC(=S)NCCCCCCNC(=S)NC2(C)CCS(=O)(=O)C2)CCS(=O)(=O)C1 (stereo not given)	i	.	2	1.5	.	2.5	0	2	1.2	-7
CCCc1cc(=O)[nH]c(SCC(=O)NC(=O)NC2CCCC2)n1	i	1.0	-2	0.0	0.71	-1.2	3	11	-6.2	.
CC(=O)Nc1ccc(NC(=O)CC2CCCC2)cc1	i	0.5	-3	-0.5	0.69	3.2	8	11	-1.5	-14
O=c1c2ccccc2n(Cc2ccccc2F)c(=O)n1Cc1ccccc1F	.	0.9	.	-0.3	0.67	.	.	.	.	5

Sorted by heavy-atom count (highest first): 3 of the compounds above.
SMILES	FGF22 binding	UCH37 inh	Beta apoptosis	A1 inh	E coli growth	MLL AF4-AF9 inh	rRNA inh HTS	rRNA inh HTS OD600	rRNA inh HTS RFP	T cruzi repl
CCOc1ccc(CCNC(=O)c2ccc(C)c(S(=O)(=O)N3CCOCC3)c2)cc1OCC	i	0.7	.	.	0.67	-7.3	11	9	-1.6	.
CCCc1cc(=O)[nH]c(SCC(=O)NC(=O)NC2CCCC2)n1	i	1.0	-2	0.0	0.71	-1.2	3	11	-6.2	.
CCOC(=O)c1c(C)c(C(=O)NCCOC)c(C)n1CC	i	1.9	1	-0.5	0.66	4.6	7	6	-8.9	-13

More results.
SMILES	FGF22 binding	UCH37 inh	Beta apoptosis	A1 inh	E coli growth	MLL AF4-AF9 inh	rRNA inh HTS	rRNA inh HTS OD600	rRNA inh HTS RFP	T cruzi repl
Cc1cc(=O)c2cc(NC(=O)c3ccccc3Cl)ccc2[nH]1	i	0.3	-2	-0.1	0.64	1.2	6	6	1.1	15
Cc1ccc(-c2cc3c(N=O)c4ccccc4c-3n[nH]2)cc1	i	0.5	49	-7.7	0.7	-5.1	16	12	3.9	20
CN(C)CCN(C(=O)c1ccc(C(=O)c2ccccc2)cc1)c1nc2cc3c(cc2s1)OCO3	i	1.9	-14	-1.2	0.65	4.8	-8	-6	-1.1	24
CCCCCC(=O)N/N=C/c1ccccc1[N+](=O)[O-]	i	.	.	0.0	.	2.0	-5	6	-0.3	-2
CNc1cc(Cl)nc(SC)n1	i	3.5	-7	0.0	0.69	-0.4	8	3	-1.9	-6
CSc1cccc(NC(=S)N2CCCN(Cc3ccccc3F)C2)c1	i	.	-2	0.8	.	-6.6	1	-3	-4.8	-3
CC1=C(C(=O)OC(C)(C)C)C(c2ccc(Br)cc2)NC(=O)N1CCCC(=O)O (stereo not given)	i	1.4	-4	-0.4	0.67	-14	-1	14	2.5	1
CCCC(=O)Nc1nc(-c2ccccc2)c(CC)s1	i	2.9	5	1.1	0.69	0.3	-51	-79	-12	11
Cc1ccc2cc(-c3noc(C(C)(C)C)n3)c(=O)[nH]c2c1	.	-131	3	-1.0	0.66	.	.	.	.	11
Cc1ccc(CN2CC(C(=O)N(CC(C)C)c3c(N)n(Cc4ccccc4)c(=O)[nH]c3=O)CC2=O)cc1 (stereo not given)	i	-0.5	.	.	0.66	-9.6	3	14	-3.0	.
COc1cc2nc(C(C)(C)C)oc(=O)c2cc1OC	i	0.8	0	0.9	0.69	-2.2	8	13	-0.1	-8
COc1ccc(-c2nncnn2)cc1	.	2.7	-23	-0.4	0.72	.	.	.	.	8
O=C(Nc1ccccc1)N1CCCc2ccccc21	.	-1.3	1	-0.9	0.68	.	.	.	.	1
CCOC(=O)C1CCCN(c2c(NCC3CCCO3)c(=O)c2=O)C1 (stereo not given)	i	2.9	-3	0.3	0.75	-6.2	9	3	-0.7	3
CCc1ccc(NC(=S)NC(=O)c2c(-c3ccccc3Cl)noc2C)cc1	i	3.4	-6	-0.1	0.63	6.7	4	3	-2.9	-7
N#Cc1cccc(NC(=O)CCNS(=O)(=O)c2ccc3[nH]c(=O)oc3c2)c1	.	1.3	0	0.3	0.67	.	.	.	.	-13
COc1ccc(-n2nnnc2SCC#CCO)cc1	.	0.2	11	0.7	0.63	.	.	.	.	-3
CCC(=O)NC(=S)Nc1ccc(Cl)cn1	.	6.5	0	-0.1	0.77	.	.	.	.	-8
Cc1ccccc1-n1c(=O)cc(N2CCN(Cc3ccccc3)CC2)[nH]c1=O	i	5.1	-1	-0.1	0.73	-7.4	5	9	0.5	-4
COc1ccc(-c2ccc3c(c2)S(=O)(=O)c2cccc(C(=O)NCCOc4ccccc4)c2C3=O)cc1OC	.	3.1	12	1.9	0.65	.	.	.	.	.
COc1nc(Oc2ccc(=O)[nH]n2)nc(N2CCOCC2)n1	i	-1.1	-5	0.8	0.71	2.0	10	9	-5.0	-5
Cc1ccc(S(=O)(=O)c2c(C)nn(C(C)(C)C)c2OC(=O)C2CCCC2)cc1	.	2.2	-12	-0.2	0.72	.	.	.	.	12
CC1CC(C)CN(CCOc2ccc(Cl)cc2Cl)C1 (stereo not given)	.	4.4	4	-0.4	0.6	.	.	.	.	28
CN(C(=O)c1ccco1)c1nnc(-c2ccc(F)cc2)s1	i	-1.7	.	-3.1	0.67	-1.4	-2	7	-1.0	0
CN(C)S(=O)(=O)N1CCN(c2ccccc2)CC1	i	0.2	8	0.6	0.65	3.6	13	1	2.0	-11
O=C(O)COCC(=O)Nc1ccc(Oc2ncnc3cc(Cl)ccc23)nc1	i	1.1	-8	0.5	0.68	0.0	7	12	-0.5	-14
COc1ccc(-c2nc(NC(=O)CCNC(=O)c3ccco3)sc2C)cc1	i	0.9	18	0.1	0.6	3.1	-41	-58	-15	-4
CC(C)(C)OC(=O)NCCc1n[nH]c(=S)o1	i	4.3	0	0.4	0.65	-1.0	9	9	2.3	-2
Cc1ccc(N(CC(=O)Nc2cccc(N(C)S(C)(=O)=O)c2)S(C)(=O)=O)cc1	.	2.1	-5	0.2	0.7	.	.	.	.	-9
Cc1ccc(C(C(=O)NC(C)(C)C)N(C(=O)c2csnn2)C2CC2)cc1 (stereo not given)	.	1.0	1	-0.5	0.69	.	.	.	.	-10
O=C(NCc1ccco1)c1ccc(Cn2c(=O)c3ccccc3n(Cc3ccc(Cl)cc3)c2=O)cc1	.	0.8	11	-0.8	0.74	.	.	.	.	41
Cc1ccc(C(=O)N2CCCCCC2)cc1Br	.	1.0	-2	0.4	0.7	.	.	.	.	-7
O=C(c1coc(=O)c(Br)c1)N1CCC(C(O)(c2ccccc2)c2ccccc2)CC1	i	-229	-5	0.1	0.71	-6.6	9	6	1.6	1
COc1cccc(C(=O)N/N=c2\oc3c(OC)cccc3cc2C(=O)NCc2ccccc2)c1	i	.	-3	-0.7	.	1.7	-3	7	-5.0	33
C=CCN(C(=O)c1csnn1)C(C(=O)NCc1ccccc1)c1cccs1 (stereo not given)	i	-2.1	2	-0.1	0.65	-0.1	.	.	.	-2
COc1cccc(Nc2nc(N)c([N+](=O)[O-])c(NCc3ccco3)n2)c1	i	3.5	.	-0.3	0.64	3.3	-46*	-19*	-12*	33
CSc1ccccc1NC(=O)CSCc1ccc(C)cc1	.	-4.1	-7	-0.1	0.72	.	.	.	.	0

Source: PubChem
